From PubChem
E coli growth = E. coli growth inhibition, primary screen, OD600; Escherichia coli growth, 23 h; hits give low values; OD600 absorbance (no concentration beside the values); actives 0.21% (n = 330,000); AID 1053175, 2014;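 active = OD600 absorbance below the run mean of sample wells minus 3.6 SD, in any replicate, cut at about 0.56 in these data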;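 also: stock transfer was 300 nL into about 60 µL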
Active calls of the source: *; & = joins results of further samples. An excerpt (hit frequency here may not be typical).

Results for CCOC1OC(C(=O)N2CCN(C)CC2)=CC(C(C)(C)C)C1CCCO (stereo unspecified) ?
E coli growth: 0.698&0.672

Results for CCCC1S/C(=N/N=Cc2ccco2)NC1=O (stereo unspecified) ?
E coli growth: 0.704

Results for Cc1cc([N+](=O)[O-])c2[nH]c(C(=O)NN=Cc3ccccc3C(=O)O)c(-c3ccccc3)c2c1 ?
E coli growth: 0.765

How did C(=Nn1cnnc1)c1ccc(-c2ccccc2)cc1 do in these assays?
E coli growth: 0.677

How did COc1cc(OC)cc(C(=O)NN=Cc2ccc(OC)c(COc3ccc4ccccc4c3)c2)c1 do in these assays?
E coli growth: 0.726

What do the screens show for `CC(C)CC1CN=C(N(C)C)N1CCCCc1ccccc1` (stereo unspecified)?
E coli growth: 0.7

Results for C#CCOCCOCCOCCNc1nc(N2CCN(C(=O)C(C)n3cc(CCCN=C(N)N)nn3)CC2)nc(N2CCN(C(=O)C(C(C)CC)n3cc(CCC(=O)O)nn3)CC2)n1 (stereo unspecified) ?
E coli growth: 0.691

Results for OCCC1CC(O)C(O)[C@@]2(CCCc3ccccc3O2)O1 (stereo partly specified) ?
E coli growth: 0.67&0.663&0.71

Results for CN(C)S(=O)(=O)c1ccc(C(=O)NCC(=O)NN=Cc2ccco2)cc1 ?
E coli growth: 0.698

How did O=C(NN=Cc1ccccc1F)c1ccccc1OCc1ccccc1 do in these assays?
E coli growth: 0.699

Results for CC(C)Oc1ccc(C(=O)C(=Cc2cccs2)c2nc3ccccc3o2)cc1 ?
E coli growth: 0.762

How did CC(C)(C)C=NNC(=O)C1CC1 do in these assays?
E coli growth: 0.63

How did C#CCOCCOCCOCCNc1nc(N2CCN(C(=O)C(C)n3cc(CCC(=O)O)nn3)CC2)nc(N2CCN(C(=O)C(C(C)CC)n3cc(CCCCN)nn3)CC2)n1 (stereo unspecified) do in these assays?
E coli growth: 0.681

What do the screens show for `CC(C)CC(CO)N(Cc1ccccc1)S(=O)(=O)N(Cc1ccccc1)C(CO)CC(C)C` (stereo unspecified)?
E coli growth: 0.7

What do the screens show for `O=C(O)c1cc(NN=Cc2ccc3c(c2)OCO3)ccc1Cl`?
E coli growth: 0.683

For reference, 14 of the compounds above:
Results for CCCC1S/C(=N/N=Cc2ccco2)NC1=O (stereo unspecified) ?
E coli growth: 0.704

Results for Cc1cc([N+](=O)[O-])c2[nH]c(C(=O)NN=Cc3ccccc3C(=O)O)c(-c3ccccc3)c2c1 ?
E coli growth: 0.765

How did C(=Nn1cnnc1)c1ccc(-c2ccccc2)cc1 do in these assays?
E coli growth: 0.677

How did COc1cc(OC)cc(C(=O)NN=Cc2ccc(OC)c(COc3ccc4ccccc4c3)c2)c1 do in these assays?
E coli growth: 0.726

What do the screens show for `CC(C)CC1CN=C(N(C)C)N1CCCCc1ccccc1` (stereo unspecified)?
E coli growth: 0.7

Results for C#CCOCCOCCOCCNc1nc(N2CCN(C(=O)C(C)n3cc(CCCN=C(N)N)nn3)CC2)nc(N2CCN(C(=O)C(C(C)CC)n3cc(CCC(=O)O)nn3)CC2)n1 (stereo unspecified) ?
E coli growth: 0.691

Results for OCCC1CC(O)C(O)[C@@]2(CCCc3ccccc3O2)O1 (stereo partly specified) ?
E coli growth: 0.67&0.663&0.71

Results for CN(C)S(=O)(=O)c1ccc(C(=O)NCC(=O)NN=Cc2ccco2)cc1 ?
E coli growth: 0.698

How did O=C(NN=Cc1ccccc1F)c1ccccc1OCc1ccccc1 do in these assays?
E coli growth: 0.699

Results for CC(C)Oc1ccc(C(=O)C(=Cc2cccs2)c2nc3ccccc3o2)cc1 ?
E coli growth: 0.762

How did CC(C)(C)C=NNC(=O)C1CC1 do in these assays?
E coli growth: 0.63

How did C#CCOCCOCCOCCNc1nc(N2CCN(C(=O)C(C)n3cc(CCC(=O)O)nn3)CC2)nc(N2CCN(C(=O)C(C(C)CC)n3cc(CCCCN)nn3)CC2)n1 (stereo unspecified) do in these assays?
E coli growth: 0.681

What do the screens show for `CC(C)CC(CO)N(Cc1ccccc1)S(=O)(=O)N(Cc1ccccc1)C(CO)CC(C)C` (stereo unspecified)?
E coli growth: 0.7

What do the screens show for `O=C(O)c1cc(NN=Cc2ccc3c(c2)OCO3)ccc1Cl`?
E coli growth: 0.683

(further entries)
Results for CCC(C)C1CNCCN1CCc1cc(C(F)(F)F)cc(C(F)(F)F)c1 (stereo unspecified) ?
E coli growth: 0.632

Results for COCCNC(=S)NN=C(C)c1ccc(Cl)c(Cl)c1Cl ?
E coli growth: 0.718

How did Cc1ccc(C=Nn2c(-c3ccccc3)n[nH]c2=S)cc1 do in these assays?
E coli growth: 0.684

What do the screens show for `CCC1=C(OC(=O)N(CC)CC)N2C(=O)OC(=NCCc3c[nH]c4ccccc34)[C@]2(Cc2ccccc2)C2C1=CCC1C(=O)N(CC)C(=O)C12` (stereo partly specified)?
E coli growth: 0.698

What do the screens show for `COc1ccc(CNC(=O)C2CC=CC3CCN(C4CCCCC4)C(=O)C32)cc1` (stereo unspecified)?
E coli growth: 0.686

How did C[C@@]12C(=O)Nc3ccc(Br)cc3C(=O)N1C1c3cc(Cl)ccc3OCC1C2c1ccccc1 (stereo partly specified) do in these assays?
E coli growth: 0.71

How did COc1ccc(OC)c(C=NNC(=O)CCc2c(C)n[nH]c2C)c1 do in these assays?
E coli growth: 0.666

Results for CC(/C=C/c1ccccc1)=NNC(=O)CCC(=O)Nc1ccccc1C ?
E coli growth: 0.677

What do the screens show for `NC(=S)NN=Cc1ccc(-c2ccc([N+](=O)[O-])cc2)o1`?
E coli growth: 0.725

Results for Cn1nc(-c2ccccc2)c(C=NO)c1Cl ?
E coli growth: 0.651

What do the screens show for `CC(CCc1ccc2c(c1)OCO2)=NN=C(N)SC1CC(=O)N(c2ccccc2F)C1=O` (stereo unspecified)?
E coli growth: 0.824

Results for O=c1c(=Cc2cccn2-c2ccccc2)sc2nc3ccccc3n12 ?
E coli growth: 0.682

What do the screens show for `Cc1nc2ccccc2n1CC(=O)NN=Cc1cccnc1`?
E coli growth: 0.682

Results for COc1ccccc1CC1S/C(=N/N=Cc2ccco2)NC1=O (stereo unspecified) ?
E coli growth: 0.68

How did CCOC(=O)C1=C(C)N=c2sc(=Cc3ccc(OCC(=O)O)cc3)c(=O)n2C1c1cc(OC)c(OC)c(OC)c1 (stereo unspecified) do in these assays?
E coli growth: 0.631

What do the screens show for `C=CCOc1ccc2cccc(C=NNC(=O)c3cc4cc([N+](=O)[O-])ccc4s3)c2c1`?
E coli growth: 0.738

Results for O=C(COc1c(Br)cc(Br)cc1Br)NN=Cc1ccco1 ?
E coli growth: 0.743

How did COc1ccc(N=C2SC(=Cc3ccco3)C(=O)N2CC(C)C)cc1 do in these assays?
E coli growth: 0.659

Results for S=C1NCC(c2ccccc2)N1CCCCC1CCCCC1 (stereo unspecified) ?
E coli growth: 0.691

How did CCCc1c(C(=O)NN=Cc2ccc(OC)c(OCc3ccccc3)c2)nnn1-c1nonc1N do in these assays?
E coli growth: 0.661

Results for C=C(C)CNC(=S)N=c1scc(C)n1CC ?
E coli growth: 0.697

How did NCCCCC(NC(=O)C1CCNCC1)c1nnc(C(N)Cc2ccc(O)cc2)o1 (stereo unspecified) do in these assays?
E coli growth: 0.674

What do the screens show for `CC(=NNS(=O)(=O)c1ccc(Cl)cc1)c1cccc(NC(=O)c2ccncc2)c1`?
E coli growth: 0.724

What do the screens show for `Cc1ccc(NC(=O)ON=Cc2ccc(Br)cc2)cc1`?
E coli growth: 0.688

How did C=CCOc1c(Br)cc(C=NNC(N)=O)cc1OC do in these assays?
E coli growth: 0.681

How did O=C(NN=Cc1cccnc1)c1ccccc1O do in these assays?
E coli growth: 0.655

How did CCCC1OC2CC3C4CCC5=CC(=O)C=C[C@]5(C)C4C(O)C[C@]3(C)[C@]2(C(=O)CO)O1 (stereo partly specified) do in these assays?
E coli growth: 0.649

What do the screens show for `CC(C)(C)N1C(=O)C2C(c3ccc(Br)cc3)N3C(=O)N(c4cccc(F)c4)C(=O)[C@@]3(C)C2C1=O` (stereo partly specified)?
E coli growth: 0.682

Results for C(=Nc1nccs1)c1cccnc1 ?
E coli growth: 0.731

How did O=[N+]([O-])c1ccc(C=NN2CCCCC2)cc1 do in these assays?
E coli growth: 0.663

Results for O=C(NCc1cc(C(F)(F)F)cc(C(F)(F)F)c1)C1CC(c2ccccc2C(F)(F)F)=NO1 (stereo unspecified) ?
E coli growth: 0.666

Results for Cc1ccc(NC(=S)NN=Cc2ccc([N+](=O)[O-])s2)cc1 ?
E coli growth: 0.67

How did c1nc(CCOC2CCCCO2)cc2cc3c(cc12)OCO3 (stereo unspecified) do in these assays?
E coli growth: 0.665

How did C/C(C=NNC(=O)C(O)c1ccccc1)=C\c1ccccc1 (stereo unspecified) do in these assays?
E coli growth: 0.687

What do the screens show for `N=C1SCC(=O)N1N=Cc1ccccc1`?
E coli growth: 0.682

How did CCOC(=O)C1C2COc3cc(OC)ccc3C2N2C(=O)N(c3ccc(Br)cc3)C(=O)[C@]12C (stereo partly specified) do in these assays?
E coli growth: 0.723&0.723

What do the screens show for `CC(C)(C)C1C=C(C(=O)NCc2ccccc2)OC(OCc2ccc(CO)cc2)C1` (stereo unspecified)?
E coli growth: 0.673&0.69

What do the screens show for `CC(C)(C)c1cc(C(=O)NN=Cc2ccc([N+](=O)[O-])s2)n[nH]1`?
E coli growth: 0.62

How did O=C(O)CCC(=NNC(=O)c1ccncc1)c1ccccc1 do in these assays?
E coli growth: 0.676

How did CCC(=NNC(=O)c1ccccc1)c1ccc(OCCN2CCOCC2)cc1 do in these assays?
E coli growth: 0.684

Results for N#CCC(=O)NN=Cc1cc(Br)ccc1OC/C=C/c1ccccc1 ?
E coli growth: 0.689

How did O=C(NN=Cc1ccco1)c1cc(-c2ccc(Cl)cc2)n[nH]1 do in these assays?
E coli growth: 0.605

Results for O=C(NN=Cc1cccs1)c1ccccn1 ?
E coli growth: 0.681

Results for O=C(C1=CC(c2ccccc2)CC(OCc2ccc(CO)cc2)O1)N1CCCCCCC1 (stereo unspecified) ?
E coli growth: 0.679

What do the screens show for `Nc1ccc(C(=O)NN=Cc2ccc(OC(=O)c3ccccc3Cl)cc2)cc1`?
E coli growth: 0.696

How did CC(=NOC(=O)C1CC12CCC2)c1ccc(Br)cc1 (stereo unspecified) do in these assays?
E coli growth: 0.672

How did COC(=O)NN=Cc1cc(OC)c(O)c([N+](=O)[O-])c1 do in these assays?
E coli growth: 0.655

Results for C/C(C=NNC(=O)c1ccc(Cn2cc([N+](=O)[O-])cn2)o1)=C\c1ccccc1 ?
E coli growth: 0.683

Results for CC(=NNc1ccc(Cl)c(C(=O)O)c1)c1cccc2ccccc12 ?
E coli growth: 0.655

What do the screens show for `CC=C(C)C(=O)Nc1cccc(C2=NOC3(C2)CC(C(N)=O)N(C(=O)Cc2ccc([N+](=O)[O-])cc2)C3)c1` (stereo unspecified)?
E coli growth: 0.685

How did COC(=O)C1=CC(C(=O)OC)C2C3=C(C(=O)C2(C)C)C(c2ccccc2)C2C(=O)N(C)C(=O)C2C3C1 (stereo unspecified) do in these assays?
E coli growth: 0.691

How did Cc1ccc(S(=O)(=O)N(CC(=O)NN=Cc2cccc3c2OCCO3)c2ccccc2F)cc1 do in these assays?
E coli growth: 0.761

Results for CCCOc1ccc(Br)cc1C=NNC(=O)c1cc(OC)c(OC)c(OC)c1 ?
E coli growth: 0.718

Results for COC(=O)c1nn(-c2ccccc2)c(Sc2ccc(Br)cc2)c1C=NO ?
E coli growth: 0.704

What do the screens show for `Cc1ccc(NC(=O)C(CN(C)C)=NO)cc1`?
E coli growth: 0.713

How did COc1cc(OC)c(OC)cc1C=NNC(=O)C[n+]1ccccc1 do in these assays?
E coli growth: 0.693

Results for COc1ccc(C=NNC(=O)CNC(=O)/C=C/c2ccccc2OC)cc1 ?
E coli growth: 0.677

Results for CCOc1ccc(C=NNC(=O)C(C)N(c2ccc(OC)cc2)S(C)(=O)=O)cc1OCC (stereo unspecified) ?
E coli growth: 0.697

How did CC(=NNc1ccc2nncn2n1)c1ccc(Cl)s1 do in these assays?
E coli growth: 0.692

What do the screens show for `COc1cc(OC)c([N+](=O)[O-])cc1C=NNC(=O)c1ccncc1`?
E coli growth: 0.716

Results for COc1ccccc1N1CCN(N=C/C=C/c2ccccc2[N+](=O)[O-])CC1 ?
E coli growth: 0.669

What do the screens show for `O=C(O)COc1ccccc1C=NNC(=O)CSc1nnc(-c2ccc(Cl)cc2)n1C1CCCCC1`?
E coli growth: 0.669

Results for CC(=NOC(=O)C1CC1c1ccccc1)c1ccccc1 (stereo unspecified) ?
E coli growth: 0.667

How did CC(=NNC(=O)c1cc(-c2ccc(O)cc2)nc2ccccc12)c1cccnc1 do in these assays?
E coli growth: 0.657

Results for O=C(NN=Cc1ccc2c(c1)OCO2)c1ccco1 ?
E coli growth: 0.644

Results for C#CCOCCOCCOCCNc1nc(N2CCN(C(=O)C(CCC(=O)O)n3cc(C(N)CC(C)C)nn3)CC2)nc(N2CCN(C(=O)C(C(C)CC)n3cc(C(N)COC(=O)C(F)(F)F)nn3)CC2)n1 (stereo unspecified) ?
E coli growth: 0.676

How did Cc1cc(C)nc(NN=Cc2ccccc2OCc2ccc(Cl)cc2)n1 do in these assays?
E coli growth: 0.637

How did O=C(NN=Cc1cc([N+](=O)[O-])ccc1O)c1cccc2cc[nH]c12 do in these assays?
E coli growth: 0.712

Results for O=S1(=O)N=C(N(CCO)N=Cc2ccc(Br)cc2)c2ccccc21 ?
E coli growth: 0.706

What do the screens show for `CCc1ccc(C(C)=NNC(=O)CNC(=O)/C=C/c2ccccc2OC)cc1`?
E coli growth: 0.656

Results for COCCNC(=S)NN=Cc1ccc(OCc2ccc(C(=O)OC)cc2)c(OC)c1 ?
E coli growth: 0.686

What do the screens show for `Nc1nonc1NN=Cc1ccccc1`?
E coli growth: 0.673

Results for COc1ccc2nc(C)cc(SCC(=O)NN=Cc3c(OC)ccc4ccccc34)c2c1 ?
E coli growth: 0.685

What do the screens show for `CCN(CC)S(=O)(=O)c1cccc(C(=O)NN=C2CCCC(=O)C2)c1`?
E coli growth: 0.685

What do the screens show for `c1ccc(-c2cn(CC3CCC(C4CCC(Cn5cc(-c6ccccc6)nn5)O4)O3)nn2)cc1` (stereo unspecified)?
E coli growth: 0.661

Results for O=C(CNC(=O)c1ccc(S(=O)(=O)N2CCCC2)cc1)NN=Cc1c(Cl)cccc1Cl ?
E coli growth: 0.638

What do the screens show for `CCOc1cc(C(=O)NCC(=O)NN=Cc2sccc2C)cc(OCC)c1OCC`?
E coli growth: 0.718

What do the screens show for `CC(C)(C)N1CC23CCC(CC2C1=O)O3` (stereo unspecified)?
E coli growth: 0.683
